# Ba CapD inh – inhibitors of Bacillus anthracis CapD enzyme; 140,000 compounds, 0.23% hits; z-score (concentration not given with the values); purified CapD enzyme, fluorescence intensity read-out; stronger effect = lower value; some hits fall short of the stated cut;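 active = z-score under -4 in either of two replicates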;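 also: stock transfer was 100 nL into about 40 µL; score is relative to mean and spread of the plate; one replicate is shown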
# AID504770 – E. coli YBA685 growth inhibition, screen for V. cholerae RctB inhibitors | z-score (concentration not given with the values) | 130,000 compounds, 0.27% hits | E. coli YBA685 rctB-dependent plasmid, OD600 growth, 3 h; stronger effect = lower value | AID 504770;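 active = z-score under -2 on both plates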;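 also: wells of about 30 µL received 100 nL stock; score is relative to mean and SD of the test wells; the first replicate is given; strong numbers were not always called active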
# Starred values were filed as active, the others as inactive; x = not tested or not shown; & = joins results of further samples.
SMILES,Ba CapD inh,AID504770
Cc1c(C(=O)Nc2ccc(Oc3ccccc3)cc2)sc2ncn(CC(=O)N3CCC(C)CC3)c(=O)c12,-0.67,x
Cc1[nH]ncc1-c1ccccc1Cl,0.44,-0.15
COc1ccc(N2CCN(S(=O)(=O)c3ccc(F)c(C(=O)Nc4ccc(C(C)C)cc4)c3)CC2)cc1,-0.39,x
O=C(CSc1ncccc1C(=O)N1CCC(Cc2ccccc2)CC1)c1ccccc1,-0.35,-0.35
O=C(c1ccc(Cl)nc1)N1CCC(c2nc(-c3cccc(C(F)(F)F)c3)no2)CC1,-0.38,x
O=C1c2cccc3cccc(c23)C(=O)N1c1nc2ccccc2[nH]1,2.8,x
CCOC(=O)Nc1cc(C(=O)OC)ccc1C(=O)OC,29,x
COc1ccc(C2=NN3C(C2)c2cccc(OC)c2OC3c2ccc(OC)c(OC)c2)cc1 (configuration not stated),0.34,x
COc1ccccc1N1CCN(CCCOc2cc(C)ccc2C(C)C)CC1,-0.32,-1.1
CC(C)CN1CC23C=CC(O2)C(C(=O)OC(C)C)C3C1=O (configuration not stated),-0.18,0.25

# As a working copy, part of the list above:
SMILES,Ba CapD inh,AID504770
Cc1c(C(=O)Nc2ccc(Oc3ccccc3)cc2)sc2ncn(CC(=O)N3CCC(C)CC3)c(=O)c12,-0.67,x
Cc1[nH]ncc1-c1ccccc1Cl,0.44,-0.15
COc1ccc(N2CCN(S(=O)(=O)c3ccc(F)c(C(=O)Nc4ccc(C(C)C)cc4)c3)CC2)cc1,-0.39,x
O=C(CSc1ncccc1C(=O)N1CCC(Cc2ccccc2)CC1)c1ccccc1,-0.35,-0.35

# Further records:
SMILES,Ba CapD inh,AID504770
CCCN1CCN(c2ncnc3sc(C(=O)NCC4COc5ccccc5O4)c(C)c23)CC1 (configuration not stated),1.2,x
CCOCCOC(=O)C(C)Oc1ccc2c(=O)c(Oc3cc(C)c(Cl)c(C)c3)coc2c1 (configuration not stated),0.07,x
CN(CC(=O)O)S(=O)(=O)c1cccs1,x,-1
O=C1NC(=O)C(c2ccccc2)N1 (configuration not stated),-0.53,-1.1
CCCCCCCNS(=O)(=O)c1cc(S(=O)(=O)NCCCCCCC)c2cccc3c2c1NC3=O,2,x
c1ccc2c(NC3C4CC5CC(C4)CC3C5)nc(N3CCOCC3)nc2c1 (configuration not stated),49,-0.2
CC1CN(C(=O)/C=C/c2cccc3ccccc23)CC(C)O1 (configuration not stated),4,0.4
Cc1ccc(S(=O)(=O)NC(Cc2c[nH]c3ccccc23)C(N)=O)cc1Cl (configuration not stated),0.28,x
Nc1ccc2nc(SCC(=O)n3c4c(c5ccccc53)CCCC4)sc2c1,-0.82,1.9
O=C(CSC1=NCCS1)N1CCCC1,0.29,1.1
O=C(Nc1ccc(Br)cc1)c1c[nH]c2ccccc2c1=O,-0.09,1.2
CCOC(=O)N1CCN(C(=O)c2ccc(N3CC4CC(C3)c3cccc(=O)n3C4)c(NC(=O)c3ccc(F)cc3)c2)CC1 (configuration not stated),-0.035,x
O=C1CCC(NC(=O)OCc2ccccc2)(C(=O)OCc2ccccc2)O1 (configuration not stated),0.54,-0.35
CC1(C)CSC(=Nc2cccc(C(F)(F)F)c2)N1C(=O)/C=C/c1ccco1,x,1.4
COc1ccc(CN2CC(C(=O)NCCC(C)C)CC2=O)cc1 (configuration not stated),-0.065,-0.8
CC(=O)C1=C(C)OC(N)=C(C#N)C1c1cccc(OCc2ccccc2)c1 (configuration not stated),0.31,x
CC1CC1C(=O)Nc1ccc2[nH]ncc2c1 (configuration not stated),1.1,-1
CC(C)CNS(=O)(=O)c1ccc(F)cc1,0.025,-0.2
O=C(NN1C(=O)C2C3c4ccccc4C(c4ccccc43)C2C1=O)c1cccnc1 (configuration not stated),x,-0.45
CC(=O)Nc1ccc(S(=O)(=O)N(C)C2CCN(Cc3cccc(Cl)c3)C2)cc1 (configuration not stated),0.24,x
N#C/C(=C\C1=C(N2CCOCC2)C(=C/c2ccc(Cl)cc2Cl)/CC1)c1nnc(N2CCOCC2)n1-c1ccccc1,x,-0.6
CN1CCN(c2nc(-c3ccc(Cl)s3)cs2)CC1,x,-0.75
COC(=O)c1cc2c(s1)-c1ccccc1OC2,-0.42,x
Cc1nn(C2CCS(=O)(=O)C2)c(C)c1CN(C)C(=O)c1ccc(S(=O)(=O)N(C)C)cc1 (configuration not stated),x,-0.3
O=C(Cn1cccc1)N1CCN(Cc2ccccc2)CC1,-0.89,0.15
O=C(Nc1cc(=O)[nH]c(=O)[nH]1)c1cccc(C(F)(F)F)c1,x,0.25
Cc1cc(C)n(-c2ccc(C(=O)Nc3ccc4c(c3)OCCO4)cc2)n1,-1.1,0
CCOC(=O)c1ccc2nc(/N=C/N(C)C)sc2c1,2.9,x
C[C@@H]1C[C@H]2[C@@H]3C[C@H](F)C4=CC(=O)C=C[C@]4(C)[C@@]3(Cl)[C@@H](O)C[C@]2(C)[C@H]1C(=O)COC(=O)C(C)(C)C,-1.7,x
CN(C(=O)c1ccc2c(c1)N(Cc1ccc(F)cc1)C(=O)c1ccccc1S2=O)C1CCCCC1 (configuration not stated),-0.91,0.65
COC(=O)C1=CCCN(C)C1,-0.55&1.2,0.05
O=c1[nH]c(SCCO)nc2sc3c(c12)CCCC3,-0.67,2.7
CCOc1ccc(NC(=O)CC2C(=O)N(CC)C(=S)N2NC(=O)c2ccncc2)cc1 (configuration not stated),0.23,0.85
CN(Cc1ccccc1F)C(=O)c1ccccc1S(C)(=O)=O,x,-0.05
COC(=O)c1ccc(COC(=O)c2ccc(I)cc2)cc1,1.4,-1.2
COc1cc(Br)c(CN2CCCC(COC(=O)N3CCN(c4cccc(C)c4)C(C)C3)C2)cc1OC (configuration not stated),-0.06,x
FC(F)(F)c1ccc(N2CCN(Cc3c[nH]c4ccccc34)CC2)nc1,0.52,0.7
O=C(OCC1CCCO1)c1c(Cl)cccc1Cl (configuration not stated),x,1.1
CCOC(=O)N1CCN(C(=O)c2cnn3c(C(F)(F)F)cc(-c4cccc(OC)c4)nc23)CC1,x,0.05
CCOC(=O)c1c(CN(C)C)oc2ccc(O)cc12,x,-0.75

# Next section, overlapping the part above by four compounds.
SMILES,Ba CapD inh,AID504770
FC(F)(F)c1ccc(N2CCN(Cc3c[nH]c4ccccc34)CC2)nc1,0.52,0.7
O=C(OCC1CCCO1)c1c(Cl)cccc1Cl (configuration not stated),x,1.1
CCOC(=O)N1CCN(C(=O)c2cnn3c(C(F)(F)F)cc(-c4cccc(OC)c4)nc23)CC1,x,0.05
CCOC(=O)c1c(CN(C)C)oc2ccc(O)cc12,x,-0.75
COc1ccc(C2C(C#N)=C(N)Oc3n[nH]c(C45CC6CC(CC(C6)C4)C5)c32)cc1OC (configuration not stated),-0.66,x
Cc1nn2c3ccccc3nc2n1CCN1CCCCC1,0.22,0.25
CCOC(=O)c1c(CN2CCN(c3ccccc3)CC2)n(C)c2cc(Br)c(OC)cc12,-0.075,x
Oc1ccc(-n2cccc2)cc1,-0.33,-1.2
COc1cc(OC)c([N+](=O)[O-])cc1/C=C1\C(=O)NC(=O)N(c2ccc(Br)cc2)C1=O,-0.51,x
CCC(Nc1ccc(Br)cc1)C(=O)N/N=C/c1ccco1 (configuration not stated),-0.085,-0.7
Cc1sc2nc(SCc3nc(-c4cccs4)no3)n(-c3ccccc3)c(=O)c2c1C,2.3,-1.1
COc1cc(C=C(C#N)C#N)cc2c1OCO2,0.25,-1.4
Cc1[nH][nH]c(=O)c1Sc1nc2ccccc2[nH]1,x,0.5
O=c1oc2c3ccccc3c3oc(=O)sc3c2s1,-0.34,-0.15

# Full records from above. Values in the order: Ba CapD inh | AID504770
# COc1cc(C=C(C#N)C#N)cc2c1OCO2 is entered as 0.25 | -1.4
# CCC(Nc1ccc(Br)cc1)C(=O)N/N=C/c1ccco1 (configuration not stated) is entered as -0.085 | -0.7

# Remaining list, next part
SMILES,Ba CapD inh,AID504770
COc1cc(OC)nc(OC(Cc2ccncn2)c2ccc(C(C)(C)C)cc2)n1 (configuration not stated),-0.48,x
O=C(O)C1CC1(C(=O)O)C(F)(F)F (configuration not stated),0.48,-0.05
COc1cc(NC(=O)CSc2nc3[nH]ncc3c(=O)n2-c2ccc(F)c(Cl)c2)cc(OC)c1OC,-0.24,x
COc1ccc(OC)c(C(=O)CSc2nc3ccccc3o2)c1,x,0.55
O=C(Nc1ccc(-n2cnnn2)cc1)C1CC(=O)N(C2CCCC2)C1 (configuration not stated),x,-0.2
NCCc1c[nH]c2ccc(O)cc12,0.94,x
O=C(ON(C(=O)c1ccccc1)c1ccccc1)c1ccccc1,0.2,0
c1ccc(-c2nc(-c3ccc4c(c3)sc3ccccc34)c(-c3ccccc3)[nH]2)cc1,-0.47,x
CCCC(N)c1cccs1 (configuration not stated),x,0.1
Cc1cc(C(=O)O/N=C(\N)c2ccc(C(C)(C)C)cc2)no1,-0.69,-0.55
CC1CN=C(NCc2ccccc2)S1 (configuration not stated),0.6,-0.9
CNC(=O)c1ccc(C(=O)N(C(C)C)C(C)C)cc1,-0.11,-0.05
CC(C)(C)OC(=O)NC(CC(=O)N1CCN(C/C=C/c2ccccc2)CC1)c1ccc(F)cc1 (configuration not stated),-0.18,x
COCCn1cnc2c1c(=O)n(CC(=O)c1cc(C)n(-c3ccccc3)c1C)c(=O)n2CC(C)C,x,1.6
Cc1c(-c2ccccc2)[n+](=O)c(-c2ccco2)c(C)n1[O-],-0.19,-0.4
CNC(=S)N/N=C/c1ccc(C(=O)OC)cc1,x,1.4
C/C=C/C(=O)OCc1ccc(Cl)cc1Cl,0.09,0.5
Nc1nc(-c2ccc(Cl)cc2Cl)cs1,x,-0.5
CC1CCCCN1C(=O)c1ccc(S(=O)(=O)NCc2cccnc2)cc1 (configuration not stated),x,0.6
CCN(C(=O)c1coc(=O)c2ccccc12)c1cccc(C(F)(F)F)c1,0.29,x
COc1cc2c(cc1OC)C1(CCC(O)CC1)CN(C)C2 (configuration not stated),1.6,1.9
CC(=O)NC1Sc2ccccc2N=C1c1ccccc1 (configuration not stated),x,0
C=C(C)Cn1c(CCNC(=O)c2cccs2)nc2ccccc21,0.14,-0.65
CCc1ccc2oc(-c3ccc(N)cc3)nc2c1,x,-0.95
CC(C)(C)OC(=O)N1CCN(c2ccc(NS(=O)(=O)c3ccc(Cl)cc3)cn2)CC1,-0.11,0.45
O=[N+]([O-])c1ccccc1-c1nnc(-c2ccc(Cl)cc2)o1,0.08,x
c1ccc2sc(Cc3nc4ccccc4s3)nc2c1,-0.38,x
Fc1ccc(-n2cccc2)cc1,0.69,x
CN1C2CCC1CC(NC(=O)Nc1ccc(Cl)cc1)C2 (configuration not stated),0.69,0.6
O=C(Nc1ccc(Cl)cc1Cl)/C(=C/c1ccc2c(c1)OCO2)NC(=O)c1ccccc1Br,8,x

# A second format for part of the listing above.
# Order of values – Ba CapD inh | AID504770
> COc1ccc(N2CCN(S(=O)(=O)c3ccc(F)c(C(=O)Nc4ccc(C(C)C)cc4)c3)CC2)cc1
  -0.39 | x
> O=C(CSc1ncccc1C(=O)N1CCC(Cc2ccccc2)CC1)c1ccccc1
  -0.35 | -0.35
> O=C(c1ccc(Cl)nc1)N1CCC(c2nc(-c3cccc(C(F)(F)F)c3)no2)CC1
  -0.38 | x

# Carrying on:
SMILES,Ba CapD inh,AID504770
CCCCCCCCCCOc1ccc(C(=O)Oc2ccc(OCCCCCC)cc2)cc1,-0.085,x
C=CCNc1ncnc2c1cnn2-c1ccccc1,-1.1,-0.9
O=c1[nH]c2ccc(N=Cc3ccc4c(c3)OCO4)cc2[nH]1,5.6,-0.4
O=C1NC(=O)/C(=C\c2ccccc2Oc2cccc(C(F)(F)F)c2)S1,-0.35,x
NC1=NC2(CCN(Cc3ccccc3)CC2)n2c(nc3ccccc32)N1,-1.2,-0.75
C[N+]1(c2cccc(C(F)(F)F)c2)CCC(N)=N1 (configuration not stated),-0.36,0.3
CC(=O)Nc1ccc(N2COc3ccc(NC(C)=O)cc3C2)cc1,-0.27,-0.35
CCOC(=O)c1ccc(NC(=O)/C(=C\c2ccc3c(c2)OCO3)NC(=O)c2ccccc2)cc1,-0.26,x
CC(=O)N1N=C(c2ccccc2)CC1c1cc2cc3c(cc2nc1Cl)OCO3 (configuration not stated),0.37,-0.05
Nc1c(Cl)ncnc1NCCCn1ccnc1,0.41,-1.1
CCSc1ccccc1C(=O)N1CC(=O)Nc2ccccc21,x,0.2
CCOC(=O)C1=C(O)CSC1=Nc1ccccc1,x,-0.15
CC1(C)CC(=O)c2sc3nc(-c4ccc(Cl)cc4)cn3c2C1,-0.91,0.7
COc1ccc(C(=O)N2c3ccccc3N(Cc3ccccc3)C(=O)C2(C)C)cc1,-0.48,x
O=C(N=C1c2ccccc2CN1c1ccc(F)c(F)c1)c1cccnc1,-0.2,-2
COc1ccc2cc(COC(=O)c3c(OC)cccc3OC)c(Cl)nc2c1,x,0.25
O=C(O)CCNc1cc(C(=O)O)ccc1C(=O)O,53,0.75
COc1ccc(CCNC(=O)c2c(-c3ccccc3Cl)noc2C)cc1OC,-0.51,x
CCS(=O)(=O)N1CC(C)OC(C)C1 (configuration not stated),0.025,-0.85
C=CCN(CC=C)C(=O)c1ccccc1F,-0.74,1.9
COc1cccc(C(=O)Nc2cc(C)on2)c1,x,-1.3
O=C(CC(=O)Nc1ccccn1)Nc1ccc2nc3n(c(=O)c2c1)CCCCC3,0.08,1.9
O=C1c2cccc3cccc(c23)C(=O)N1CCCCCCCCN1C(=O)c2cccc3cccc(c23)C1=O,7.9,x
O=C(Nc1ccc(Br)cc1)c1cnn2c1NC(c1ccc(Br)cc1)CC2C(F)(F)F (configuration not stated),0.02,x
CCOC(=O)c1ccc(NC(=O)CSc2nccn2C)cc1,-0.59,-1.4
NC(=O)COC(=O)c1sc2ccccc2c1Cl,3.5,-0.8
CC(C)C(=O)N=C1SC2CS(=O)(=O)CC2N1c1ccccc1 (configuration not stated),0.27,0.2
CN(C)S(=O)(=O)c1ccc(C(=O)Oc2cc(Cl)c[nH]c2=O)cc1,x,-0.15
Cc1ccc(CNC(=O)Cn2ccn(-c3ccccc3)c(=O)c2=O)cc1,-0.84,0.35

# Screening data deposited in PubChem BioAssay by ICCB-Longwood Screening Facility, Harvard Medical School.
